Bioassay records deposited in PubChem by National Center for Advancing Translational Sciences (NCATS).
PINK1 modulator: changes PINK1 expression | PINK1 immunofluorescence, high-content cytometry, 24 h | Potency, µM (top dose mostly 76.6 µM), without a hit: at the top dose activation (PINK1 increase), usual class: activators | 410,000 compounds, 0.2% hits; active = well fitted activation curve with a large enough effect; inconclusive = small, poorly fitted or top-dose-only effect; inactive = flat fitted curve, though single readings scatter; cell line not stated here;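 also: potency is read from the fitted curve at half-maximal effect; % of control where 0% means no effect; nearly all actives have a fitted effect of over 65% in size; a mitochondrial uncoupler was the plate control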
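Stable cell line treated 24 h with compounds at 5 concentrations (CCCP controls), then fixed and immunostained for PINK1 plus nuclear and cell stains; PINK1 immunofluorescence quantified by laser-scanning microplate cytometry.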
CtBP-E1A inh: CtBP/E1A binding inhibition | activity change, % (no concentration beside the values) | AID 651724 | 340,000 compounds, 0.49% hits | AlphaScreen GST-E1A/His-CtBP binding, 1536-well; hits give low values; control for the full effect not named in the record; in the data active means activity change below about -65%; inconclusive means about -30% to -65%; inactive means above about -30%; also: % is scaled to controls: 0 for no effect and ±100 for the full control effect
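GST-E1A and His-tagged CtBP (125 nM each as 5X stock) were preincubated with pin-transferred compound for 2 h at 37 °C in the dark, then glutathione donor and nickel acceptor beads were added for 1 h before AlphaScreen reading.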
TRPML1 agonist: human mucolipin-1 channel agonism; Q9GZU1; TRPML1-expressing cells, Ca2+ dye fluorescence, FDSS; host cell line not named in the record; reference of the full effect not given here; activation, % (concentration not given with the values); 410,000 compounds, 0.12% hits; AID 624414; in the data active = activation above about 50%; inconclusive = about 30% to 50%; inactive = below about 30%; also: 0% is about no effect; the text of the record puts the active cut at 80%
Target sequence (Q9GZU1 whole entry, looked up): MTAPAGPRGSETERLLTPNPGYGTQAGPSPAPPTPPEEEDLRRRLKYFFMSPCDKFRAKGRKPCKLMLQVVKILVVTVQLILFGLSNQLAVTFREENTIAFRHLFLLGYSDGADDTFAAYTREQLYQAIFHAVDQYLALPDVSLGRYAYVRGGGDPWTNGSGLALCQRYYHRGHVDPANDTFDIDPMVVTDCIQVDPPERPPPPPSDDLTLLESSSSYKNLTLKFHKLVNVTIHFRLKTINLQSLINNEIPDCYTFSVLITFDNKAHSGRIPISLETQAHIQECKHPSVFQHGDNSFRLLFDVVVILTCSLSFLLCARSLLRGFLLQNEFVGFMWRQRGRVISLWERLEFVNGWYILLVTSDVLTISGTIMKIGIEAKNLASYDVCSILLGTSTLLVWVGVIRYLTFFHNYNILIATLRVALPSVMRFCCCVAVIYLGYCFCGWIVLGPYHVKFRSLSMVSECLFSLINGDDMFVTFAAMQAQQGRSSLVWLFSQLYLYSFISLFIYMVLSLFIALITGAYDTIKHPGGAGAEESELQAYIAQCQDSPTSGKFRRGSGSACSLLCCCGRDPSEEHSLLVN
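Tet-induced TRPML1-DL cells, 1,500 per well, cultured overnight, were loaded with a no-wash Ca2+ dye for 45–90 min. Calcium fluorescence was recorded on the FDSS for 110 s after compound addition, before the EC80 agonist (4 uM 54-4) was added.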
D2 PAM: human D2 receptor positive allosteric modulation; DiscoveRx D2 beta-arrestin cells, luminescence, 90 min; 100% = 57 uM dopamine signal; 360,000 compounds, 0.23% hits; potentiation, % (no concentration beside the values); active = potentiation of 50% or more; inconclusive = 30% to 50%; inactive = 30% or less;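 also: compound concentration not given in the record; tested on top of an EC20 dose of dopamine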
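PathHunter beta-arrestin assay in DiscoveRx D2 cells. Compounds were added with an EC20 of dopamine (50 nM final) for 90 min at 37 deg C. Luminescence was read 1 h after detection reagent, with 57 uM dopamine as the EC100 control.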
D2 agonist: human D2 receptor agonism in beta-arrestin assay. P14416. activation, % (test concentration not listed). 360,000 compounds, 0.084% hits. DiscoveRx PathHunter D2 beta-arrestin, luminescence, 90 min; 100% = 57 uM dopamine signal. AID 624465; in the data active = activation above about 40%; inconclusive = about 15% to 40%; inactive = below about 15%; also: compound concentration not given in the record; the text of the record calls up to 30% inactive
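Agonist mode: compounds alone added to overnight-plated D2 PathHunter cells for 90 min at 37 C, with 57 uM final dopamine (EC100) defining full response. Beta-arrestin recruitment detected by chemiluminescent reagent, read after 1 h at ambient temperature.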
Six1-Eya2 inh: inhibitors of human Six1/Eya2 interaction | Q15475+O00167 | AlphaScreen GST-Six1/His-Eya2 binding, biochemical; hits give low values; control for the full effect not named in the record | activity change, % (test concentration not listed) | 360,000 compounds, 0.56% hits; in the data active = activity change below about -65%; inconclusive = about -30% to -65%; inactive = above about -30%; also: % is scaled to controls: 0 for no effect and ±100 for the full control effect
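AlphaScreen luminescence read after one hour at 37 °C in darkness. Pin-transferred compounds met GST-Six1 and His-Eya2 protein (5X stock 250 nM/500 nM) plus glutathione donor and Ni-chelate acceptor beads (5X, 50 ug/mL).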
Numbers without * were called inactive; u = inconclusive; x = not tested or not shown; [ ] = dose if it differs, or a comment.

1	CCCN(C)C1CN(Cc2cn(CCCOC)nn2)S(=O)(=O)C1 (configuration not stated)
2	CC(C(=O)NC1(C#N)CCCCC1)N(C)CC(=O)Nc1ccc(Cl)c(Cl)c1 (configuration not stated)
3	OCCOCCOc1ccc(-c2nn[nH]n2)cc1
4	Cc1ccc(N2CC(C(=O)N/N=C/c3sccc3C)CC2=O)cc1 (configuration not stated)
5	COCCCNC(=O)CSc1ccc(Cl)cc1
6	CCC(C(=O)NC1CCCC1)N(Cc1cccs1)C(=O)Cn1nnc(-c2ccc(OC)c(OC)c2)n1 (configuration not stated)
7	Cc1c(C)[n+](=O)c(-c2ccc(Br)cc2)c(C)n1[O-]
8	COC(=O)c1ccc(C23CC4(C2)[C@H](CN(CC2CCCCC2)[C@@H]4c2ccccc2)C3c2ccc(C(F)(F)F)cc2)cc1 (some centres not stated)
screen / no. | 1 | 2 | 3 | 4 | 5 | 6 | 7 | 8
PINK1 modulator | 0.6% | 5.1% | 0.5% | u | 1.8% | x | 1.6% | 29%
CtBP-E1A inh | 6 | x | -19 | -1 | 9 | 8 | 5 | 1
TRPML1 agonist | -0.2 | -0.1 | 0.7 | 0.0 | -0.3 | 0.7 | -0.9 | 0.2
D2 PAM | x | -3 | -4 | -26 | -1 | -17 | 7 | -6
D2 agonist | x | -1.8 | 2.2 | 3.9 | -0.1 | 2.1 | -5.1 | -4.0
Six1-Eya2 inh | 3 | -9 | 4 | -20 | 0 | -7 | 6 | -8

Ordered by the number under PINK1 modulator (largest number first): 4 from the list above
item | Compound | PINK1 modulator
8 | COC(=O)c1ccc(C23CC4(C2)[C@H](CN(CC2CCCCC2)[C@@H]4c2ccccc2)C3c2ccc(C(F)(F)F)cc2)cc1 (some centres not stated) | 29%
2 | CC(C(=O)NC1(C#N)CCCCC1)N(C)CC(=O)Nc1ccc(Cl)c(Cl)c1 (configuration not stated) | 5.1%
5 | COCCCNC(=O)CSc1ccc(Cl)cc1 | 1.8%
1 | CCCN(C)C1CN(Cc2cn(CCCOC)nn2)S(=O)(=O)C1 (configuration not stated) | 0.6%

Continuation:
9	CC[N+](CC)(CCO)CCCN1C(=O)C2CC=C(Cl)CC2C1=O (configuration not stated)
10	COc1ccc(S(=O)(=O)N2CCOC2CNC(=O)C(=O)NCCN2CCOCC2)cc1OC (configuration not stated)
11	COc1cccc(COc2cc3ccccc3nc2C)c1
12	O=C(NC1CCCC1)C1CCC(CNS(=O)(=O)c2ccc(F)cc2)CC1 (configuration not stated)
13	Cc1ccc(C(=O)Nc2cc3c(cc2Cl)OCCCO3)cc1
14	O=c1cc(C(F)(F)F)[nH]c(=S)n1-c1ccccc1
15	Cc1ccc(C(C)C)c(OCC(=O)N2CCOCC2)c1
16	Cn1c(=O)n(C)c2cc(C(=O)Nc3ccc(Br)cc3)ccc21
screen / no. | 9 | 10 | 11 | 12 | 13 | 14 | 15 | 16
PINK1 modulator | 4.5% | 0.7% | -1.3% | 3.5% | 1.6% | -1.2% | 0.4% | u
CtBP-E1A inh | 6 | -5 | 14 | 8 | 3 | 6 | 5 | -1
TRPML1 agonist | 0.7 | -0.1 | 1.5 | 0.1 | -1.8 | -1.0 | 0.4 | -0.7
D2 PAM | u | 18 | -3 | -2 | -16 | -2 | -19 | 1
D2 agonist | -4.0 | -0.7 | 1.4 | -2.1 | -0.6 | 1.4 | -2.2 | -3.4
Six1-Eya2 inh | 2 | 3 | 7 | 1 | -2 | 5 | 2 | -8

Part of the list above, limited to PINK1 modulator and D2 PAM.
entry | SMILES | PINK1 modulator | D2 PAM
16 | Cn1c(=O)n(C)c2cc(C(=O)Nc3ccc(Br)cc3)ccc21 | u | 1
13 | Cc1ccc(C(=O)Nc2cc3c(cc2Cl)OCCCO3)cc1 | 1.6% | -16
9 | CC[N+](CC)(CCO)CCCN1C(=O)C2CC=C(Cl)CC2C1=O (configuration not stated) | 4.5% | u
12 | O=C(NC1CCCC1)C1CCC(CNS(=O)(=O)c2ccc(F)cc2)CC1 (configuration not stated) | 3.5% | -2
11 | COc1cccc(COc2cc3ccccc3nc2C)c1 | -1.3% | -3
14 | O=c1cc(C(F)(F)F)[nH]c(=S)n1-c1ccccc1 | -1.2% | -2
15 | Cc1ccc(C(C)C)c(OCC(=O)N2CCOCC2)c1 | 0.4% | -19

(next part)
17	Cc1cc(C)c2c(=O)[nH]c(SCC(=O)NCCc3ccccc3)nc2n1
18	CCN(CC)S(=O)(=O)c1cccc(NC(=O)C2SC(=Nc3ccc(C)cc3C)C(C(=O)NC(C)COC)=C2N)c1 (configuration not stated)
19	Cc1cccc(C)c1NC(=O)N1CCC(n2cnc3ccccc32)CC1
20	CC(=O)Oc1ccc(N(C(C)=O)S(=O)(=O)c2cccs2)c2ccccc12
21	Nc1nc(COc2ccc(F)cc2Cl)nc(N2CCCCC2)n1
22	CCOC(=O)Cc1csc(NC(=O)CN2CCN(c3ccccc3)CC2)n1
23	COCCNC(C(=O)Nc1ccc([N+](=O)[O-])cc1Br)c1ccccc1 (configuration not stated)
24	CC(C)=C1SC(N2CCN(c3cccc(C(F)(F)F)c3)CC2)=NC1=O
screen / no. | 17 | 18 | 19 | 20 | 21 | 22 | 23 | 24
PINK1 modulator | -3.4%[38.3 µM] | u | -0.3% | 7.3%[38.3 µM] | 1.5% | 1.6% | 1.3% | -3.6%[38.3 µM]
CtBP-E1A inh | 6 | -5 | -2 | -13 | 8 | -1 | -20 | 3
TRPML1 agonist | -0.1 | 0.7 | -0.5 | 1.5 | 2.1 | 0.3 | -0.2 | 2.5
D2 PAM | -5 | -10 | 1 | u | 8 | 6 | u | -1
D2 agonist | -0.3 | -3.7 | -2.8 | 4.8 | 2.3 | 5.6 | 1.9 | -1.5
Six1-Eya2 inh | 5 | -15 | -1 | -23 | 2 | -4 | -8 | 3

Single records, as listed above. Values in the order: PINK1 modulator | CtBP-E1A inh | TRPML1 agonist | D2 PAM | D2 agonist | Six1-Eya2 inh
Profile of `CCN(CC)S(=O)(=O)c1cccc(NC(=O)C2SC(=Nc3ccc(C)cc3C)C(C(=O)NC(C)COC)=C2N)c1` (configuration not stated) → u | -5 | 0.7 | -10 | -3.7 | -15
Profile of `Nc1nc(COc2ccc(F)cc2Cl)nc(N2CCCCC2)n1` → 1.5% | 8 | 2.1 | 8 | 2.3 | 2
Profile of `Cc1cc(C)c2c(=O)[nH]c(SCC(=O)NCCc3ccccc3)nc2n1` → -3.4%[38.3 µM] | 6 | -0.1 | -5 | -0.3 | 5

Next section:
25	COc1ccc(Cl)cc1NC(=O)CN(C)C(=O)c1cc(-c2ccncc2)nc2ccccc12
26	CCOc1cc(/C=N/NC(=O)C(=O)Nc2cc(Cl)ccc2C)ccc1O
27	Cc1csc(CCc2nc(C)cs2)n1
28	O=C(NCc1ccccn1)C1CCN(Cc2cnn(-c3ccccc3)c2-n2cccc2)CC1
29	O=C(NCCc1ccccc1F)[C@@H]1CSC2c3ccccc3C(=O)N21 (some centres not stated)
30	CC(Sc1nnnn1C)C(=O)Nc1ncc(Cl)cc1Cl (configuration not stated)
31	CCCn1nc(NC(=O)CC(C)C)c2cc3cccc(C)c3nc21
32	c1ccc(N2CCN(Cc3nc4ccccc4[nH]3)CC2)nc1
screen / no. | 25 | 26 | 27 | 28 | 29 | 30 | 31 | 32
PINK1 modulator | -1.3% | 5.0% | -1.0% | x | 0.7% | -0.5% | 6.5% | 0.2%
CtBP-E1A inh | 1 | 2 | 11 | -1 | 1 | -6 | 18 | -3
TRPML1 agonist | -0.4 | 0.3 | 0.4 | -0.2 | -0.5 | 0.3 | -0.3 | 0.0
D2 PAM | -37 | -1 | -24 | -14 | -20 | -5 | -5 | -3
D2 agonist | -5.5 | -1.2 | 1.0 | -3.5 | -2.4 | -6.5 | 0.2 | 5.1
Six1-Eya2 inh | -12 | 2 | 3 | -1 | 4 | 8 | -2 | 3

33	OC(c1ccc(Cl)cc1)c1ncc(-c2ccccc2Cl)[nH]1 (configuration not stated)
34	COc1ccc(Cl)cc1NC(=O)CN(C)C(=O)Cn1cnc2c1c(=O)n(C)c(=O)n2C
35	Cc1ccnc(SCC(=O)n2c3c(c4ccccc42)CC(C)CC3)n1 (configuration not stated)
36	COc1ccc(CCNC(=O)CS(=O)(=O)c2cn(CC(=O)N3CCCC3)c3ccccc23)cc1OC
37	CC1(C)CC(=O)C(C=NCCN2CCN(C(=S)Nc3ccc(F)cc3)CC2)=C(O)C1
38	CCOC(=O)C1CCN(S(=O)(=O)c2cccc3nonc23)CC1
39	CCOC(=O)c1[nH]c2ccc(OC)cc2c1NC(=S)N1CCN(c2ccc(F)cc2)CC1
40	CCC(Sc1nc(N)cc(=O)[nH]1)C(=O)NC(C(=O)OC)c1ccccc1 (configuration not stated)
41	CCOc1ccc2c(c1)C(c1ccc(C)cc1)=NNC(c1ccc(C)cc1)=N2
screen / no. | 33 | 34 | 35 | 36 | 37 | 38 | 39 | 40 | 41
PINK1 modulator | 3.9% | 1.5% | u | 0.4% | 2.1%[38.3 µM] | -0.2% | 5.4% | -0.4% | 12%
CtBP-E1A inh | -10 | -19 | 1 | 4 | 39 | 1 | -8 | 2 | -21
TRPML1 agonist | -1.3 | 0.1 | 2.0 | -0.3 | -0.1 | -0.4 | -0.3 | -0.4 | 0.7
D2 PAM | -11 | -38 | -7 | 7 | -11 | -15 | -14 | 0 | -15
D2 agonist | -3.8 | -1.4 | -0.4 | 3.0 | -3.4 | -2.0 | -0.7 | 0.2 | -1.9
Six1-Eya2 inh | -7 | 16 | -2 | 4 | 19 | 2 | -7 | 1 | -24
